Compound activity from PubChem.
RGS16-Gao HTS: modulators of RGS16 binding to Galphao, primary screen, biochemical, human proteins, multiplexed bead flow cytometry; binding response (% of control), % at 10 µM; bead-based flow cytometry RGS16-Galphao binding, fluorescence; actives lie on both sides; hit rate 0.38% among 220,000;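 active means below 25% or above 175%, edge rows of some plates excepted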;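 further: Galphao activated by GDP with aluminum fluoride before binding; 100% = wells without compound and 0% = beads without RGS; some results beyond the cut were filed as inactive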
Target sequence (O15492 whole entry, looked up): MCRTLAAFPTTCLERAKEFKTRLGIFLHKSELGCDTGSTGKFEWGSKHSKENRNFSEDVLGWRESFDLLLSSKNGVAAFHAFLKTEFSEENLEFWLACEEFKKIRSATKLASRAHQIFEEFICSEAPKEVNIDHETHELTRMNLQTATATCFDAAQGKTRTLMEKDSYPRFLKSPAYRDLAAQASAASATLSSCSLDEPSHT
Target sequence (P09471 whole entry, looked up): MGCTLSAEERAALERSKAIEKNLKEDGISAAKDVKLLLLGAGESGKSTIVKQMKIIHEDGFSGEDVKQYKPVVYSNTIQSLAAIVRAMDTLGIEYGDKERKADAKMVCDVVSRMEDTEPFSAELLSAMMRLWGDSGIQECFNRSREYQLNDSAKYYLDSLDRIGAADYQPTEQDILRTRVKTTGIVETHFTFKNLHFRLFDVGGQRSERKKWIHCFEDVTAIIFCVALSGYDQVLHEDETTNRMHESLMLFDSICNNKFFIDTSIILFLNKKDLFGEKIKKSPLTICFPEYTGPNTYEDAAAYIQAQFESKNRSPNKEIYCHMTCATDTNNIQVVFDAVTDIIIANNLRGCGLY
PKD1 inh: inhibitors of human PKD1 kinase, biochemical, fluorescence polarization | PKD1 kinase fluorescence polarization assay | AID 797, 2007 | hit rate 0.056% among 200,000 | Serine/threonine-protein kinase D1 (Homo sapiens), Q15139 | inhibition, %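 (about 10 µM by stock and volumes)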;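 active means inhibition of 50% or more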;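 further: controls were vehicle for no effect and a reference inhibitor for full effect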
HSV replic up: enhancers of HSV replication in host cells, fold increase, host cell viability | AID 1956, 2009 | hit rate 0.005% among 220,000 | maximum fold increase | HSV replication augmentation in cells;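 active means peak rise of 1.5-fold or more in the series; inconclusive means self-fluorescent or not available for retest; tested in PC3 cells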;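 further: first round at 10 µM; read as green reporter fluorescence; hits show the peak of a series up to 25 µM; 1 = signal of infected wells without compound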
GALR2 ag: GALR2 receptor agonists, primary screen, cell-based. Galanin receptor type 2 (Homo sapiens), O43603. GALR2-expressing cells, agonist activation read-out. activation, %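 (tested at 5 µM)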. hit rate 0.48% among 140,000. AID 803, 2007;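 active means above mean plus 3 SD of all compounds, about 5% in these data, not always enough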;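 further: 0% = vehicle buffer wells and 100% = reference agonist at full effect; tested in CHO reporter cells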
Target sequence (O43603 whole entry, looked up): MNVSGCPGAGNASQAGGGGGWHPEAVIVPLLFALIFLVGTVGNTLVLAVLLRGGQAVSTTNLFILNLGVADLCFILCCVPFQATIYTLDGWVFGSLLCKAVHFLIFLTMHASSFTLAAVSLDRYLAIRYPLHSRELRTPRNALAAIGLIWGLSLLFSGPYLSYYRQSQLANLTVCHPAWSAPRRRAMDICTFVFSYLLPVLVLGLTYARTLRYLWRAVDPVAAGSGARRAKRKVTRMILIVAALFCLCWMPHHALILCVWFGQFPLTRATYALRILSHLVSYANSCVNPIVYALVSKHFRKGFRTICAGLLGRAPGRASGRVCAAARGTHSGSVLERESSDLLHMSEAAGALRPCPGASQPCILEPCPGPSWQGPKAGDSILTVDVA
Insulin prom inh: inhibitors of insulin promoter-driven GFP, primary screen, imaging, TRM-6 cells (human fetal islet line), eGFP reporter, cell count | reporter expression induced with tamoxifen | inhibition, % at 2 µM | hit rate 0.9% among 130,000 | AID 1273, 2008;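 active means inhibition above the mean plus 3 SD, with well images judged a real hit on visual review, cut at about 60% in these data, passing the limit was not always enough; inconclusive means inhibition over the cutoff but images rejected on review; inactive means inhibition not above the cutoff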
Insulin prom inh cell count: second read-out of Insulin prom inh, no call of its own (marks repeat the call); normalized cell count, %; measured here: cell count, toxicity; reference of the scale not given here;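 cells exposed to compound for 48 h; stained nuclei by imaging scaled within each plate; lower means fewer cells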
HSV replic up primary fold: recorded beside HSV replic up, whose call it bears; fold increase; compound at 10 µM; measured here: primary screen fold increase 10 uM; tested in PC3 cells;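 GFP signal in the first replicate; 1 = infected wells without compound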
Numbers without * were called inactive; i = inactive; ? = inconclusive; . = not tested or not shown; & = joins results of further samples.

SMILES	RGS16-Gao HTS	PKD1 inh	HSV replic up	HSV replic up primary fold	GALR2 ag	Insulin prom inh	Insulin prom inh cell count
CC1CC(C)CN(CCOCCSc2ccc(Cl)cc2)C1 (stereo unspecified)	104.9	-5.3	i	0.89	.	-30.8	122.4
CCOc1ccc(-n2nc3c(=O)[nH]nc(C)c3c2C)cc1	112.8	-13.8	i	1.1	-1.2	11.5	117.8
Cc1cnnn1-c1cccc([N+](=O)[O-])c1	88.9	-3.3	i	1.15	.	.	.
O=C(NC1CCCCC1)c1cccc(Cn2cc(Cl)cn2)c1	100.9	-1.4	i	0.89	-1.5	40.0	113.1
CCN(C(=O)CSc1n[nH]c(-c2cccs2)n1)C1CCS(=O)(=O)C1 (stereo unspecified)	100.2	.	i	1.01	.	.	.
COc1ccc(N/C=C/C(=O)c2ccc(Oc3ncccn3)cc2)cc1	92.5	-10.1	i	1.01	-1.9	22.6	127.7
CCOC(=O)Cc1csc(NC(=O)C2C3C=CC(C3)C2C(=O)O)n1 (stereo unspecified)	102.2	-4.8	i	0.82	-0.5	24.7	115.5
CCOc1ccc(-c2nc(CSCC(=O)NCc3ccco3)c(C)o2)cc1	99.5	-4.1	i	0.947	-1.5	-12.3	53.5
CCn1c(C)nc2cc(C(=O)NNC(=S)Nc3ccc(C)cc3)ccc21	96.0	.	i	0.94	.	.	.
CCC(C)NC(=O)CSc1nc2ccccc2c(=O)n1Cc1ccc(OC)cc1 (stereo unspecified)	120.1	-5.6	i	0.85	-1.4	-43.3	100.0
O=C(Nc1ccc2c(c1)OCO2)c1ccncc1	106.3	2.6	i	1.04	-1.5	29.0	60.2
c1ccc(C2=NNC(=NC3CC3)SC2)cc1	92.1	-7.4	i	0.78	-3.3	-7.0	129.6
CCOc1ccc2nc(NC(=O)CSc3ccc(Cl)cc3)sc2c1	101.7	-2.8	i	0.88	-0.9	-26.7	130.6
C=CC[C@@H]1Cc2c(Br)ccc(Br)c2[C@@H](CC=C)N1	61.3	-16.7	i	1.25	0.3	-33.3	100.0
O=S(=O)(Nc1ccc(N2CCOCC2)cc1)c1ccc2ccccc2c1	96.4	-3.5	.	.	-2.0	12.9	103.2
CCN(CC)c1ccc(NC(=O)CN2CCN(CC(=O)Nc3ccccc3F)CC2)cc1	108.5	5.5	i	0.94	1.9	13.2	151.4
O=C(NCc1cccnc1)c1cc(C(=O)C2CC2)c[nH]1	99.9	-2.7	i	0.94	.	-11.1	105.6
CCCCN(C(=O)Cn1ncc(Cl)c(Cl)c1=O)c1c(N)n(CC(C)C)c(=O)[nH]c1=O	81.1	.	i	0.86	.	.	.
COC(=O)[C@@H](N)Cc1ccc(O)cc1	101.0	-10.8	.	.	0.4	13.6	116.7
CCn1ncc(/C=C/C(=O)C2CC2)c1C	94.7	-8.8	i	1.1	-0.5	.	.
Cc1ccc2c(c1)C(c1ccc(O)cc1)(c1ccc(O)cc1)C(=O)N2C	92.2	5.2	i	0.91	.	-14.3	65.6
CC(C)(C)NC(=O)C1CCCN(S(=O)(=O)c2cccc3cccnc23)C1 (stereo unspecified)	105.9	5.0	i	0.94	-2.6	.	.
NC(=O)c1cccn1-c1ncc(C(F)(F)F)cc1Cl	99.8	-4.4	i	0.95	.	-85.7	67.7
COc1ccc(NC(=O)CSc2nnc(-c3ccoc3C)n2CCc2ccccc2)cc1	98.4	-8.7	i	0.947	0.1	.	.
Cc1ccccc1-n1c(SCC(=O)N/N=C/C=C/c2ccccc2[N+](=O)[O-])nc2ccccc2c1=O	97.2	4.4	i	0.78	-1.0	52.4	102.3

Exported with values under each structure: six of the compounds above
Under each structure: RGS16-Gao HTS	PKD1 inh	HSV replic up	HSV replic up primary fold	GALR2 ag	Insulin prom inh	Insulin prom inh cell count
COc1ccc(N/C=C/C(=O)c2ccc(Oc3ncccn3)cc2)cc1
    92.5	-10.1	i	1.01	-1.9	22.6	127.7
O=C(NCc1cccnc1)c1cc(C(=O)C2CC2)c[nH]1
    99.9	-2.7	i	0.94	.	-11.1	105.6
O=C(Nc1ccc2c(c1)OCO2)c1ccncc1
    106.3	2.6	i	1.04	-1.5	29.0	60.2
CC1CC(C)CN(CCOCCSc2ccc(Cl)cc2)C1 (stereo unspecified)
    104.9	-5.3	i	0.89	.	-30.8	122.4
CCOc1ccc2nc(NC(=O)CSc3ccc(Cl)cc3)sc2c1
    101.7	-2.8	i	0.88	-0.9	-26.7	130.6
CCN(C(=O)CSc1n[nH]c(-c2cccs2)n1)C1CCS(=O)(=O)C1 (stereo unspecified)
    100.2	.	i	1.01	.	.	.

More structures follow:
SMILES	RGS16-Gao HTS	PKD1 inh	HSV replic up	HSV replic up primary fold	GALR2 ag	Insulin prom inh	Insulin prom inh cell count
Cc1ccc(NC(=O)CSCC(=O)Nc2ccc(N3CCOCC3)c(Cl)c2)cc1	135.6	-3.2	i	0.95	-1.7	0.0	95.6
Cc1ccc2nc(SCC(=O)Nc3cccc([N+](=O)[O-])c3)[nH]c2c1	101.1	-7.0	i	0.96	-0.5	-14.3	90.0
COc1ccc(-c2nc3ccccn3c2C=O)cc1	119.0	-14.6	i	0.97	-1.2	57.9	105.0
CC(C)(C)NS(=O)(=O)c1ccc(-c2csnn2)s1	82.6	3.4	i	0.933	-0.1	-71.4	152.8
COC(=O)C1C(=O)c2c(n[nH]c2C)CC1(C)C (stereo unspecified)	51.8	-2.0	i	0.77	-1.0	-51.9	146.5
Cn1c(=O)c2ncn(CC(=O)Nc3ccc4oc(-c5cccc6ccccc56)nc4c3)c2n(C)c1=O	.	1.5	.	.	-0.7	-20.9	89.4
C/C(=N\c1nc2ccccc2n1C)c1cc(Cl)ccc1O	100.0	4.3	i	1.01	-5.2	10.3	112.4
O=C1CC2CS(=O)(=O)CC2N1c1ccc(Cl)cc1Cl (stereo unspecified)	103.8	-1.5	i	0.967	-0.3	-42.1	105.7
Cc1cccc(CSc2nnc(-c3cccs3)n2Cc2ccco2)c1	84.6	-8.1	i	0.87	-1.7	-62.9	254.4
Cc1ccc(CN(c2ccc(C(=O)N3CCCC3)cc2)S(C)(=O)=O)cc1	97.9	6.3	i	0.977	-2.5	-35.7	126.7
CC1(C)CC(=O)C2=C(C1)OC1=C(C(=O)CC(C)(C)C1)C2c1ccc(O)cc1O	75.8	-3.2	i	0.83	-1.2	42.9	127.4
O=C(NCCNc1ccc([N+](=O)[O-])cc1)c1cccc2c(Br)cccc12	97.2	1.5	i	0.91	-0.1	-87.7	123.7
CCOC(Cn1c(SCc2cc(C(C)=O)ccc2OC)nc2ccccc2c1=O)OCC	104.2	-0.8	i	1.01	1.0	.	.
O=C(Cn1cc(SCc2ccc(Cl)cc2)c2ccccc21)N1CCOCC1	98.8	-7.2	i	0.95	-0.5	.	.
Cc1cc(NC(=O)Nc2cccc3ccccc23)no1	101.2&98.6	-6.3	i	0.91	-3.5	.	.
COc1cc(C(=O)Sc2ccc(C)cc2)cc(OC)c1OC	103.4	5.5	.	.	-3.6	.	.
CCOC(=O)N1CCC(NC(=O)C2CCCN(Cc3nc(-c4cccc(Cl)c4)oc3C)C2)CC1 (stereo unspecified)	100.8	-5.5	i	0.68	-1.2	.	.
O=C1CCCC(O)=C1C=Nc1cccc(C(F)(F)F)c1	54.8	3.6	i	1.03	.	-54.5	82.3
COc1ccccc1C(=O)O/N=C(/c1ccncc1)c1ccc([N+](=O)[O-])cc1	101.1	-2.5	i	1.11	.	-11.8	171.6
O=C1/C(=C/c2ccc(O)cc2)SC(=S)N1CC1CCCO1 (stereo unspecified)	99.9	.	?	.	.	.	.
O=C(Nc1ccc2nc(-c3ccco3)c(-c3ccco3)nc2c1)NC1CC1	67.4	-2.6	.	.	-0.9	-12.5	110.7
O=C(CCCN1C(=O)C2C3C=CC(C3)C2C1=O)N1CCN(c2ccccc2)CC1 (stereo unspecified)	106.7	-2.2	.	.	-1.7	18.2	117.7
CC(=O)Nc1ccc(NC(=O)Nc2ccc3c(c2)N(C)C(=O)CS3)cc1	104.8	-0.3	i	0.99	.	0.0	59.7
CCc1cc2c(=O)c(-c3nc4ccccc4n3C)c(C)oc2c(CN2CCOCC2)c1O	103.0	-14.8	i	0.97	-0.3	.	.
c1cncc(CNc2ncnc3sccc23)c1	106.3	6.5	i	1	.	.	.

Continuation:
SMILES	RGS16-Gao HTS	PKD1 inh	HSV replic up	HSV replic up primary fold	GALR2 ag	Insulin prom inh	Insulin prom inh cell count
O=C(Nn1cnnc1)c1cc([N+](=O)[O-])cc([N+](=O)[O-])c1	94.7	-1.4	i	1.02	0.4	.	.
CCCNC(=O)c1ccc2snnc2c1	94.4	-9.7	i	0.97	-1.9	-27.8	131.1
Cc1ccc(SCn2nnc3ccccc3c2=O)c(C)c1	86.3	-5.5	i	1	.	.	.
CCOc1cc(/C=C/c2cc(C(=O)O)c3ccccc3n2)ccc1O	100.5	-6.8	i	1.03	-0.8	-3.6	79.1
CCN(CC)c1ccc(/C=N/NC(=O)Cc2cccs2)c(O)c1	104.4	-0.6	i	0.66	-0.1	-18.8	92.3
O=C(NS(=O)(=O)c1ccccc1)c1ccccc1O	100.8	10.1	i	0.97	-0.4	-34.2	100.0
COc1cccc(NC(=O)c2cc([N+](=O)[O-])ccc2NCc2cccnc2)c1	54.9	-1.3	i	0.95	-0.7	-9.1	91.5
COc1ccccc1C(=O)NNC(=O)c1ccccc1F	93.4	-5.1	i	0.82	-0.9	-10.0	107.0
COc1cc(C(=O)Nc2ccc3c(c2)OCCO3)ccc1OC(C)C	-103.0	-2.4	i	0.7	-2.5	69.0	78.1
NCCCCCc1nnc(SCC(=O)c2ccc(Cl)cc2)o1	99.0	-3.2	i	1.09	-1.7	-8.3	55.9
COc1cc(/C=C/C(=O)NCc2cccnc2)cc(OC)c1OC	104.6	9.4	i	0.93	-0.7	43.3	107.6
Cc1cc([N+](=O)[O-])nn1CC(=O)NCCCn1ccnc1	132.7	0.4	i	0.92	.	.	.
CSc1ncccc1C(=O)OCC(=O)N(CC(C)C)C1CCS(=O)(=O)C1 (stereo unspecified)	105.0	-5.2	i	0.92	-2.3	.	.
CCCCNC(=O)Nc1c(C(=O)OCC)[nH]c2ccccc12	97.7	7.3	i	0.95	-1.5	-10.7	146.3
CCOC(=O)N1CCC(NC(=O)c2cc(S(=O)(=O)N(CC)CC)ccc2F)CC1	97.0	1.5	i	0.99	-1.6	-1.4	116.2
CCc1ccc(OCc2n[nH]c(=S)n2C(C)CCCC(C)C)cc1 (stereo unspecified)	93.0	-0.5	i	0.83	.	.	.
Cn1c2ccccc2c2cnn(CC(=O)O)c(=O)c21	94.6	0.3	i	0.8	-1.2	50.0	95.9
CSc1cccc(NC(=S)N2CCC(N(C)C3CCCCC3C)CC2)c1 (stereo unspecified)	102.2	-6.7	i	0.91	.	-71.4	53.3
O=C(Nc1ccccc1)c1cnc[nH]1	101.7	-2.9	.	.	-2.4	22.6	90.0
Cc1n[nH]c(=O)c2ccccc12	101.5	.	i	0.93	.	.	.
CC(C)C(NC(=O)C1CCCCC1)C(=O)Nc1ccncc1 (stereo unspecified)	102.7	-14.8	i	0.9	-1.9	.	.
Cc1ccc(/C=C2/SC(=S)N(CCC(=O)N3CCN(C)CC3)C2=O)cc1	105.4	-8.1	i	0.7	.	.	.
CC(NC(=O)CSc1nc2ccccc2c(=O)n1CCCO)c1ccccc1 (stereo unspecified)	93.2	-5.3	i	0.85	-2.0	.	.
O=C(N/N=C/c1ccc([N+](=O)[O-])o1)c1ccccc1NS(=O)(=O)c1cccs1	96.8	.	i	1.28	.	.	.
c1ccc(-c2noc(-c3ccc4c(c3)OCO4)n2)nc1	95.5	7.0	i	0.78	0.1	.	.
COc1ccc(CCNC(=O)Cc2cccs2)cc1	49.0	-13.6	i	0.99	-0.7	7.4	123.6
COc1ccc(CC(=O)N(Cc2cc3cc(OC)ccc3[nH]c2=O)C(C)C)cc1	100.0	-0.4	i	0.85	-0.6	27.3	113.8
NNc1nnc(-c2ccccc2)c(-c2ccccc2)n1	85.5	-6.6	i	1.1	-1.8	3.2	118.1
C#CCOCCOCCOCCNc1nc(N2CCN(C(=O)[C@H](CCC(=O)O)n3cc(C(N)CO)nn3)CC2)nc(N2CCN(C(=O)[C@H](Cc3ccc(O)cc3)n3cc(C(N)[C@H](C)CC)nn3)CC2)n1 (stereo partly specified)	126.2	10.8	i	1.13	.	.	.
Cc1ccc(-n2cc(CN(C)Cc3ncc[nH]3)c(-c3cccc(C)c3)n2)cc1	103.3	-0.7	i	0.85	.	31.7	108.0
